Source: PubChem BioAssay (National Center for Advancing Translational Sciences (NCATS))
TRPML1 ag: activates the human TRPML1 channel. TRPML1-expressing cells, Ca2+ dye fluorescence, FDSS; host cell line not named in the record; reference of the full effect not given here. activation, % (no concentration beside the values). hit rate 0.12% among 410,000. AID 624414; in the data active = activation above about 50%; inconclusive = about 30% to 50%; inactive = below about 30%; also: 0% is about no effect; the text of the record puts the active cut at 80%
Target sequence (Q9GZU1 whole entry, looked up): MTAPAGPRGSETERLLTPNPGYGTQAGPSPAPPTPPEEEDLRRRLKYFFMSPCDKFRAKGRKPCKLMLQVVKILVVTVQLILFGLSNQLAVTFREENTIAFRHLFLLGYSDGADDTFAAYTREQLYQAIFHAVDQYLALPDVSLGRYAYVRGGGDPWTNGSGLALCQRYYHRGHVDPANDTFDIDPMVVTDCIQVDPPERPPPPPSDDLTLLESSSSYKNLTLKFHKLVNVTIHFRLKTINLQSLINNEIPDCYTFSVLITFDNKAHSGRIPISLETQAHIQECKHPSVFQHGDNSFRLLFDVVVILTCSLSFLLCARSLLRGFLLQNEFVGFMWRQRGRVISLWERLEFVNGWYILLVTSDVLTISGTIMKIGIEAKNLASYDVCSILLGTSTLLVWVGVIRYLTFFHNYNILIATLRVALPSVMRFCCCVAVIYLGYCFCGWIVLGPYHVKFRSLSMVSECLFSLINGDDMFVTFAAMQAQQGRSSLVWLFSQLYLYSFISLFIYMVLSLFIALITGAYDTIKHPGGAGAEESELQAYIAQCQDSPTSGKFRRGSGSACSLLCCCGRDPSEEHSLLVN
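Calcium fluorescence on an FDSS kinetic reader gave the read-out. Tet-induced TRPML1-DL cells were plated overnight, dye-loaded (Ca8 with quencher, 45-90 min, room temperature, dark), then read 110 s after compound addition, and again 110 s after 4uM final 54-4 (EC80).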
D2 potentiator: positive allosteric modulators of human D2 dopamine receptor | P14416 | DiscoveRx D2 beta-arrestin cells, luminescence, 90 min; 100% = 57 uM dopamine signal | potentiation, % (no concentration beside the values) | hit rate 0.23% among 360,000; active = potentiation of 50% or more; inconclusive = 30% to 50%; inactive = 30% or less;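 also: compound concentration not given in the record; tested on top of an EC20 dose of dopamine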
Target sequence (P14416 whole entry, looked up): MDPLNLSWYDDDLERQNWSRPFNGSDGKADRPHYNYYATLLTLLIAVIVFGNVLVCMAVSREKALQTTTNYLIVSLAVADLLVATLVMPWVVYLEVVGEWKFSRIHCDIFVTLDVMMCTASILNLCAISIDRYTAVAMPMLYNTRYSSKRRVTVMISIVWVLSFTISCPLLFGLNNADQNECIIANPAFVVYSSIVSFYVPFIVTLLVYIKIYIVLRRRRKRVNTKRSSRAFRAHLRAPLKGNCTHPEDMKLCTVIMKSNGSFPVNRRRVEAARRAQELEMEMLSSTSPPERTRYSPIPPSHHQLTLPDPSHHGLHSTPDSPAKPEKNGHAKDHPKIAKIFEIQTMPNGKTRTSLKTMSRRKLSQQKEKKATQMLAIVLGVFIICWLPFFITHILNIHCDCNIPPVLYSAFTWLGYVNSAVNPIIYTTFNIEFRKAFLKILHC
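PathHunter beta-arrestin assay in DiscoveRx D2 cells. Compounds were added with an EC20 of dopamine (50 nM final) for 90 min at 37 deg C. Luminescence was read 1 h after detection reagent, with 57 uM dopamine as the EC100 control.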
Six1-Eya2 inh: inhibitors of human Six1/Eya2 interaction | AlphaScreen GST-Six1/His-Eya2 binding, biochemical; active compounds read low; control for the full effect not named in the record | hit rate 0.56% among 360,000 | activity change, % (concentration not given with the values) | AID 651725; in the data active = activity change below about -65%; inconclusive = about -30% to -65%; inactive = above about -30%; also: % is scaled to controls: 0 for no effect and ±100 for the full control effect
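Homogeneous AlphaScreen proximity assay pairing GST-Six1 with His-tagged Eya2 (added as 5X mix: 250 nM and 500 nM) in 50 mM Tris pH 8.0, 300 mM NaCl, 1 mM TCEP. Glutathione donor and nickel acceptor beads; 1 h, 37 °C, dark.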
CtBP-E1A blk: inhibitors of CtBP/E1A interaction | AlphaScreen GST-E1A/His-CtBP binding, 1536-well; active compounds read low; control for the full effect not named in the record | activity change, % (concentration not given with the values) | hit rate 0.49% among 340,000 | AID 651724; in the data active means activity change below about -65%; inconclusive means about -30% to -65%; inactive means above about -30%; also: % is scaled to controls: 0 for no effect and ±100 for the full control effect
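Steps: dispense buffer (Tris pH 8.0, NaCl 300 mM, TCEP 1 mM, BSA, Tween 20); add 5X protein mix (GST-E1A, His-CtBP, 125 nM each); pin 23 nL compound; 2 h at 37 °C, dark; add 5X beads (50 ug/mL); 1 h; read.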
D2 agonist: activates the human D2 dopamine receptor; P14416; DiscoveRx PathHunter D2 beta-arrestin, luminescence, 90 min; 100% = 57 uM dopamine signal; activation, % (no concentration beside the values); hit rate 0.084% among 360,000; AID 624465; in the data active = activation above about 40%; inconclusive = about 15% to 40%; inactive = below about 15%; also: compound concentration not given in the record; the text of the record calls up to 30% inactive
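DiscoveRx PathHunter D2 beta-arrestin cells (2,100/well) attached overnight, then compound-stimulated 90 min at 37 C in HBSS/10 mM HEPES/0.1% Tween-20 buffer; beta-galactosidase complementation read by luminescence after 1 h at ambient temperature. Dopamine 57 uM final (EC100) as control.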
PINK1 expr mod: changes PINK1 expression. hit rate 0.2% among 410,000. AID 624263. Potency, µM (top dose mostly 76.6 µM), inactives show at the highest dose activation (PINK1 increase), hits mostly activators. PINK1 immunofluorescence, high-content cytometry, 24 h; active = well fitted activation curve with a large enough effect; inconclusive = small, poorly fitted or top-dose-only effect; inactive = flat fitted curve, though single readings scatter; cell line not stated here;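 also: potency is read from the fitted curve at half-maximal effect; % of control where 0% means no effect; nearly all actives have a fitted effect of over 65% in size; a mitochondrial uncoupler was the plate control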
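Cells are seeded, rested 12 hours, then given compound at five concentrations or DMSO for 24 hours. After fixation, blocking and antibody staining, PINK1 amount and mitochondrial localization are scored; CCCP serves as control.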
The depositor's hits bear a star; ? = inconclusive; · = not tested or not shown; & = joins results of further samples; [ ] = dose if it differs, or a comment.

SMILES	TRPML1 ag	D2 potentiator	Six1-Eya2 inh	CtBP-E1A blk	D2 agonist	PINK1 expr mod
COc1ccc(NC(=O)C2C3C=CC(C3)C2C(=O)NCc2ccco2)c(OC)c1 (configuration not stated)	1.6	-7	-5	-1	-0.2	0.2%
CCOC(=O)C1=C(C)N(C)C(=S)NC1c1ccccc1Cl (configuration not stated)	-0.5	4	-1	-3	-1.7	-0.2%
CCOC(=O)c1ccc(NC(=O)COc2ccc(S(=O)(=O)N3CCCC3)cc2)cc1	2.1	-22	-2	6	-1.6	-0.6%[38.3 µM]
O=C(Cn1ccc2ccccc2c1=O)NCC(=O)Nc1ccc(F)cc1F	-0.7	-2	1	10	0.3	17%
Clc1ccc(N2CCN(c3ncnc4c3oc3ccccc34)CC2)cc1	0.7	-9	6	1	-0.1	·
Cc1noc(C)c1CCC(=O)O	0.2	-1	9	8	-2.5	-1.2%
CCNC(=S)NCc1ccco1	0.6	16	3	9	-0.9	0.1%
CCOCCc1nnc(NC(=O)Cc2ccccc2)s1	1.7	4	2	8	-1.3	1.4%
S=c1[nH]nc(CSCc2ccc(Cl)cc2Cl)n1-c1ccccc1	2.0	5	-10	-6	2.2	0.2%[38.3 µM]
S=C(NCCOCCOCCNC(=S)Nc1ccccc1)Nc1ccccc1	-0.5	-3	7	1	-3.9	2.7%
Cc1c(OC(C(=O)O)c2ccccc2)ccc2c1oc(=O)c1ccccc12 (configuration not stated)	-0.8	-2	?	·	6.3	3.1%
COc1cc(OC)cc(C(=O)O/N=C(\N)c2cccc(C)c2)c1	1.2	4	18	·	?	0.0%
CCN(CCNC(=O)CS(=O)(=O)Cc1nc(-c2cccc(OC)c2)oc1C)c1ccccc1	1.2	2	-19	-18	-2.8	-1.6%[38.3 µM]
Cc1ccc(CNCCCSc2ncccn2)cc1	-0.2	-12	5	3	1.0	2.9%
Cc1ccccc1-n1nc2c(c1NC(=O)C1CCCC1)CS(=O)(=O)C2	3.7	-5	1	·	0.1	2.0%
CCN1CCN(C(c2cccs2)C(C)NC(=O)c2cccc(OC)c2OC)CC1 (configuration not stated)	-0.1	-16	3	3	-3.7	9.1%[38.3 µM]
Cc1[nH]c2ccc(F)cc2c(=O)c1SC(F)(F)C(F)F	-0.5	-10	-6	-7	-3.2	1.6%
COc1ccc(NC(=O)CCSc2ccc(F)cc2)cc1	-0.9	-4	3	6	-1.4	0.0%
Cc1ccc(-n2nc(C)c(C(=O)O)n2)c(C)c1	0.9	-3	5	2	-4.8	0.6%
CCOC(=O)c1cnc(SCC(=O)Nc2nnc(CC)s2)nc1N	4.2	-13	-1	7	-1.5	3.8%[38.3 µM]

2 entries from above, as labelled records:
> Cc1[nH]c2ccc(F)cc2c(=O)c1SC(F)(F)C(F)F
  TRPML1 ag = -0.5; D2 potentiator = -10; Six1-Eya2 inh = -6; CtBP-E1A blk = -7; D2 agonist = -3.2; PINK1 expr mod = 1.6%
> Cc1noc(C)c1CCC(=O)O
  TRPML1 ag = 0.2; D2 potentiator = -1; Six1-Eya2 inh = 9; CtBP-E1A blk = 8; D2 agonist = -2.5; PINK1 expr mod = -1.2%

Going on with the list.
SMILES	TRPML1 ag	D2 potentiator	Six1-Eya2 inh	CtBP-E1A blk	D2 agonist	PINK1 expr mod
O=C1SCCc2c1n(Cc1ccccc1)c1ccccc21	-0.6	-11	12	25	-2.9	6.6%
COC(=O)N(C)C[C@@H]1OCc2cn(nn2)CCCC(=O)N([C@@H](C)CO)C[C@H]1C	-0.3	0	1	-21	-6.8	-0.1%
CCOC(=O)c1cnn(-c2cccc(Cl)c2)c1N	0.1	-2	7	-1	-0.9	·
Cn1nnnc1SCC(=O)N1CCc2ccccc2C1	-0.9	-19	-1	-1	-5.2	4.1%
CCn1cnc2sc(C(=O)Oc3ccc(Br)cc3)c(C)c2c1=O	0.1	-3	0	-18	1.1	2.9%
COc1ccc(CN(C)C(=O)Cc2ccc(OC)c(S(=O)(=O)N3CCOCC3)c2)cc1	1.5	-36	11	16	-4.3	-1.9%
Cc1ccc(NCc2nnc3n2CCCCC3)cc1	0.7	4	-3	0	-0.1	·
O=C(Nc1ccc(F)cc1)/C(Cl)=C/c1ccccc1	2.0	-15	-9	-21	1.1	-0.5%
CO/C([O-])=N/c1c[n+](-c2ccc(C)cc2)no1	-0.7	3	2	8	-3.4	5.4%
COc1ccc2c(c1OC)C(=O)N(c1ccc(O)cc1)C2	-0.2	-8	3	-12	-2.8	1.6%
O=C(CC(=O)Nc1ccc(F)cc1F)Nc1ccc(F)cc1F	0.4	-5	-2	-1	-0.9	-0.1%
N#Cc1ccccc1NC(=O)CSc1nnc(-c2ccccc2)n1-c1ccccc1	2.6	-9	-10	-8	-1.0	0.1%
COc1ccc(CCN2C(=O)CC(N3CCOCC3)C2=O)cc1 (configuration not stated)	3.9	3	2	0	1.8	-2.0%[38.3 µM]
Cc1[nH]n(-c2nc(-c3ccc(Cl)cc3)cs2)c(=O)c1N=Nc1ccc(O)cc1	-1.1	2	-28	·	14	2.5%
O=C(COc1ccccc1)NC1CCCCC1	0.4	-2	13	12	-3.3	0.3%
O=C(CN1CCN(S(=O)(=O)c2ccc(F)cc2)CC1)NC1CCCC1	-0.5	9	6	0	1.5	-0.7%
CCCCCn1c(=O)[nH]c2cc(C(=O)NCCCN3CCCCC3CC)ccc2c1=O (configuration not stated)	0.2	-4	8	-4	-3.8	7.1%
CNc1ncnc2c1cnn2C1CCCCO1 (configuration not stated)	-0.5	-6	-2	-4	-0.1	1.1%
COc1ccc(/C=N\NC(=O)c2ccccc2OC)cc1COc1c(F)c(F)c(F)c(F)c1F	0.1	-7	-4	6	-3.9	1.0%
COc1cc(/C=C2/SC(=S)NC2=O)ccc1OS(=O)(=O)c1ccc(C)cc1	-0.2	-17	-9	-19	-3.9	?

Of the compounds above, these have a COOH group.
SMILES	TRPML1 ag	D2 potentiator	Six1-Eya2 inh	CtBP-E1A blk	D2 agonist	PINK1 expr mod
Cc1noc(C)c1CCC(=O)O	0.2	-1	9	8	-2.5	-1.2%
Cc1c(OC(C(=O)O)c2ccccc2)ccc2c1oc(=O)c1ccccc12 (configuration not stated)	-0.8	-2	?	·	6.3	3.1%
Cc1ccc(-n2nc(C)c(C(=O)O)n2)c(C)c1	0.9	-3	5	2	-4.8	0.6%

Compound profiles, as listed above:
Profile of N#Cc1ccccc1NC(=O)CSc1nnc(-c2ccccc2)n1-c1ccccc1 : TRPML1 ag = 2.6; D2 potentiator = -9; Six1-Eya2 inh = -10; CtBP-E1A blk = -8; D2 agonist = -1.0; PINK1 expr mod = 0.1%
Profile of Cc1ccc(CNCCCSc2ncccn2)cc1 : TRPML1 ag = -0.2; D2 potentiator = -12; Six1-Eya2 inh = 5; CtBP-E1A blk = 3; D2 agonist = 1.0; PINK1 expr mod = 2.9%

Carrying on:
SMILES	TRPML1 ag	D2 potentiator	Six1-Eya2 inh	CtBP-E1A blk	D2 agonist	PINK1 expr mod
Cc1cc(C)c2cc3c(ccn3C3OC[C@H](O)[C@H](O)[C@H]3O)cc2n1 (some centres not stated)	2.8	-5	-2	3	0.1	1.0%
N#Cc1ccc(OCc2ccc(C(=O)O)o2)cc1	2.5	-2	2	7	-3.7	0.8%
COc1ccc(CN2C[C@@H](CO)O[C@@H](n3cnc4c(NCCN(C)C)ncnc43)C2)cc1	0.0	-10	1	1	-3.0	1.4%
Cc1ccc(-c2cc(-c3ccc4c(c3)OCO4)c(C#N)c(N)n2)o1	0.4	2	8	15	-2.6	6.6%
CCCCn1nnnc1C(c1ccc(OC)cc1)N1CCN(C/C=C/c2ccccc2)CC1 (configuration not stated)	0.1	-15	-11	-22	-4.0	16%
Clc1ncnc2scc(-c3ccc(Br)cc3)c12	-0.3	-3	-2	0	-3.9	-1.5%
COc1ccc(/C=N/n2c(=O)[nH]c3c([nH]c4ccc(Cl)cc43)c2=O)cc1CN1CCCCC1	-0.6	-4	2	-2	0.2	-3.1%
CC(=O)N1c2c(cc(Br)cc2S(=O)(=O)Nc2c(C)n(C)n(-c3ccccc3)c2=O)CC1C (configuration not stated)	-0.1	-28	-1	-20	2.2	-1.3%
Cc1noc(C)c1COc1ccc(C(=O)N2CCCC(C(F)(F)F)C2)cc1 (configuration not stated)	-0.2	-10	-1	0	0.1	1.0%
CCN1C(C)=C(C)S/C1=C1\SC(=S)N(NC(C)=O)C1=O	0.0	-9	-1	10	-7.2	1.1%
CCOC(=O)CNC(=O)CSc1nnc(COc2ccc(Cl)cc2)n1CC	0.4	-6	8	-1	1.1	2.0%
COc1ccc(NC(=O)CCNS(=O)(=O)c2cccc3nonc23)cc1	0.7&-0.4	7	6	2	-3.8	2.3%&0.4%
c1ccc(NN(Cc2ccccn2)c2ccccc2)cc1	1.0	-8	-4	-12	-2.2	0.0%
C=CCOc1cccn2c(N(C=O)Cc3ccc(OC)cc3)c(CC)nc12	-0.3	-1	1	1	10	5.5%
COc1ccc(C(=O)N2CCCC(CO)(Cc3ccccc3C)C2)o1 (configuration not stated)	0.0	-1	-1	3	-5.9	1.6%
S=C(NC1CC1)N1CCCc2ccccc21	-0.1	-10	-4	-1	-5.8	0.7%
CCOP(=O)(OCC)C(NC(=O)Nc1ccc(C)cc1)C(N)=O (configuration not stated)	0.3	-3	3	-3	-3.9	-1.1%
COC(C[C@H]1O[C@H]1C(=O)[C@@H](C)OCc1ccccc1)OC	-0.5	-10	0	8	-2.9	0.0%
Cc1ccc(NC(=O)c2ccc(NCCN)c([N+](=O)[O-])c2)cc1	-0.9	-25	-24	-16	-4.2	6.6%
COc1ccc(OC)c(NC(=O)c2nc3ccccc3s2)c1	1.4	5	21	14	-1.5	3.7%
CCOC(=O)c1c(C)cc(C)n2c1nc1ccccc12	-0.5	-3	4	10	-1.0	1.5%
CCCNc1nc2c(c(=O)[nH]c(=O)n2C)n1CCOc1ccccc1	0.9	-3	3	6	-2.8	1.1%
Cc1cccn2c(=O)c3cc(C(=O)NCc4ccco4)c(=N)n(C4CCCCC4)c3nc12	0.2	-6	-25	-12	0.9	28%
O=C(OCc1c(Cl)cccc1Cl)c1ccncc1	-0.6	2	4	10	-5.1	9.8%
CC1CN(C(=O)CCC(=O)NCc2ccc(Cl)cc2)c2ccccc2O1 (configuration not stated)	0.3	-13	0	5	-5.3	4.9%
CCOc1ccc(C(C(=O)NCCC(C)C)N(CCO)C(=O)c2snc(C(N)=O)c2N)cc1 (configuration not stated)	0.6	-4	5	-1	-2.6	0.0%
Cc1ccc(S(=O)(=O)c2c(C)nn(C(C)(C)C)c2OC(=O)c2ccco2)cc1	0.4	-5	4	-6	0.6	?
Cc1ccc(C(C[N+](=O)[O-])Sc2ccc(N)cc2)cc1 (configuration not stated)	1.9	-26	-5	-1	-12	-2.1%
Cc1ccc(NC(=O)Cn2nnc(C(=O)NCc3ccccc3)c2N)cc1C	0.0	2	0	4	-0.3	7.9%
Cc1ccc(CNC(=O)COC(=O)CCC(=O)c2cccs2)cc1	1.1	-3	-2	-1	-2.4	1.4%

Not a hit list; any-hit rate near 1.3%.
